Assay outcomes as filed in PubChem BioAssay.
D2 agonist = Beta-Arrestin HTS for Positive Allosteric Modulators of the Human D2 Dopamine Receptor: Agonists; D(2) dopamine receptor (Homo sapiens), P14416; DiscoveRx PathHunter D2 beta-arrestin, luminescence, 90 min; 100% = 57 uM dopamine signal; activation, % (no concentration beside the values); 0.084% of 360,000 active; AID 624465, 2012; in the data active = activation above about 40%; inconclusive = about 15% to 40%; inactive = below about 15%; further: compound concentration not given in the record; the text of the record calls up to 30% inactive
Target sequence (P14416 whole entry, looked up): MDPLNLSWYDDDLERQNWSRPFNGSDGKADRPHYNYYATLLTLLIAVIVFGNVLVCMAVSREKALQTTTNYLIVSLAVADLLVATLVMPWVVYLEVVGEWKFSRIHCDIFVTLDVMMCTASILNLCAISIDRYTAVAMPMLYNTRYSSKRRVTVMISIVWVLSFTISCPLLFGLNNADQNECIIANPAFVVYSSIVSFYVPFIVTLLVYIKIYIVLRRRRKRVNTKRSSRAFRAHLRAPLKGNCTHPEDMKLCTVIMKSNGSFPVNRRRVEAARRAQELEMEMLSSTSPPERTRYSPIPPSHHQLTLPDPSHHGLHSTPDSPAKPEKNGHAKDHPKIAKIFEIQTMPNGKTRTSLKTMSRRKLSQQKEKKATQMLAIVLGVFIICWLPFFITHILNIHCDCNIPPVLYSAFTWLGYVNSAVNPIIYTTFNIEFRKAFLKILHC
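Agonist mode: compounds alone added to overnight-plated D2 PathHunter cells for 90 min at 37 C, with 57 uM final dopamine (EC100) defining full response. Beta-arrestin recruitment detected by chemiluminescent reagent, read after 1 h at ambient temperature.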
PINK1 modulator = A Quantitative High throughput Screen to Identify Chemical Modulators of PINK1 Expression. PINK1 immunofluorescence, high-content cytometry, 24 h. Potency, µM (doses to about 76.6 µM), for the others: top-dose activation (PINK1 increase), hits mostly activators. 0.2% of 410,000 active. AID 624263, 2012; active = well fitted activation curve with a large enough effect; inconclusive = small, poorly fitted or top-dose-only effect; inactive = flat fitted curve, though single readings scatter; cell line not stated here;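 further: potency means the concentration at half of the fitted maximal effect; % of control where 0% means no effect; nearly all actives have a fitted effect of over 65% in size; a mitochondrial uncoupler was the plate control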
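Decision-based qHTS: stable cells, 24 h exposure to five compound concentrations, CCCP as control. Fixed cells stained for PINK1 plus nuclear, mitochondrial and cell markers, cytometer read.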
Six1-Eya2 inh = qHTS Assay for Inhibitors of the Six1/Eya2 Interaction. AlphaScreen GST-Six1/His-Eya2 binding, biochemical; hits give low values; control for the full effect not named in the record. activity change, % (concentration not given with the values). 0.56% of 360,000 active; in the data active = activity change below about -65%; inconclusive = about -30% to -65%; inactive = above about -30%; further: on the % scale 0 is the no-effect control and ±100 the full control effect
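Six1/Eya2 binding was read as AlphaScreen signal after compounds were pinned into GST-Six1 plus His-tagged Eya2 (5X stock 250/500 nM) in pH 8.0 Tris/NaCl/TCEP buffer, beads added, then incubated 1 h, 37 C, dark.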
TRPML1 agonist = qHTS for Agonists of the Human Mucolipin Transient Receptor Potential 1 (TRPML1) | Mucolipin-1 (Homo sapiens), Q9GZU1 | TRPML1-expressing cells, Ca2+ dye fluorescence, FDSS; host cell line not named in the record; reference of the full effect not given here | activation, % (no concentration beside the values) | 0.12% of 410,000 active | AID 624414, 2012; in the data active = activation above about 50%; inconclusive = about 30% to 50%; inactive = below about 30%; further: 0% is about no effect; the text of the record puts the active cut at 80%
Target sequence (Q9GZU1 whole entry, looked up): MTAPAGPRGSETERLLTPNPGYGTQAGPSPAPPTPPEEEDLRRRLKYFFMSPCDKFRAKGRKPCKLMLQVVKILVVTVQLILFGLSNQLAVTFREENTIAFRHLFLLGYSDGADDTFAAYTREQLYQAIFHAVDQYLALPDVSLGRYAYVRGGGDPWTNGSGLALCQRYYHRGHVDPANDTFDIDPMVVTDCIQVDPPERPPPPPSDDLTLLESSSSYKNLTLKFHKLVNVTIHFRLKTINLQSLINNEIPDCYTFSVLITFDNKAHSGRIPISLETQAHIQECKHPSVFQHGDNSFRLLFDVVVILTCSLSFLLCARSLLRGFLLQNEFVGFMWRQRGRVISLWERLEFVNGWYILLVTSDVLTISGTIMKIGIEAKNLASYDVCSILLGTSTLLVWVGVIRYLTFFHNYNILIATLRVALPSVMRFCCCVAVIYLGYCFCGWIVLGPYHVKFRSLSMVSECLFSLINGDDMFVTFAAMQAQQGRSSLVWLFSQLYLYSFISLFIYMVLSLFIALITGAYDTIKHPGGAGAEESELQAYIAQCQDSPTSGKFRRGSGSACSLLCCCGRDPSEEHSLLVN
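Calcium fluorescence on an FDSS kinetic reader gave the read-out. Tet-induced TRPML1-DL cells were plated overnight, dye-loaded (Ca8 with quencher, 45-90 min, room temperature, dark), then read 110 s after compound addition, and again 110 s after 4uM final 54-4 (EC80).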
CtBP-E1A blk = qHTS Assay for Inhibitors of the CtBP/E1A Interaction; 0.49% of 340,000 active; activity change, % (no concentration beside the values); CtBP / adenovirus E1A interaction (AlphaScreen); AlphaScreen GST-E1A/His-CtBP binding, 1536-well; hits give low values; control for the full effect not named in the record; AID 651724, 2012; in the data active means activity change below about -65%; inconclusive means about -30% to -65%; inactive means above about -30%; further: on the % scale 0 is the no-effect control and ±100 the full control effect; compound concentration not given in the record
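Steps: dispense buffer (Tris pH 8.0, NaCl 300 mM, TCEP 1 mM, BSA, Tween 20); add 5X protein mix (GST-E1A, His-CtBP, 125 nM each); pin 23 nL compound; 2 h at 37 °C, dark; add 5X beads (50 ug/mL); 1 h; read.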
TRPML1 blocker = qHTS for Inhibitors of the Human Mucolipin Transient Receptor Potential 1 (TRPML1) | activity change, negative = inhibition, % (test concentration not listed) | AID 624415, 2012 | 0.02% of 390,000 active | Mucolipin-1 (Homo sapiens), Q9GZU1 | TRPML1-inducible cells, Ca2+ dye fluorescence, FDSS; hits give low values; inhibition of EC80 agonist-evoked calcium signal; in the data active means activity change below about -50%; inconclusive means about -30% to -50%; inactive means above about -30%;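 further: stimulus is agonist 54-4 at its EC80 concentration; on the % scale 0 is the no-effect control and ±100 the full control effect; compound concentration not given in the record; the text of the record puts the active cut at -80%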
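Calcium fluorescence in TRPML1-DL cells induced overnight with Tet: a 110 s read after compound pin addition, then a 110 s antagonist read after challenge with 54-4 at 4 uM final (EC80).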
* = called active by the depositor; ? = inconclusive; · = no result given; & = joins results of further samples; [ ] = dose if it differs, or a comment.

SMILES	Six1-Eya2 inh	TRPML1 agonist	D2 agonist	TRPML1 blocker	PINK1 modulator	CtBP-E1A blk
CC(=O)NCC(=O)NC(C(=O)Nc1ccc2c(c1)OCCO2)c1ccccc1 (configuration not stated)	6	-0.8	-4.0	26	-0.6%	4
C=CCc1cccc(/C=N/NC(=O)c2ccc3nc[nH]c3c2)c1O	-12	0.9	2.3	7	7.7%	?
Cc1cc(-c2cc(-c3ccccc3)on2)nc(NC2CCCC2)n1	3	1.4	-2.6	21	?	0
Cc1cccnc1CC(C)NC(=O)c1cc(COc2cncc(Cl)c2)on1 (configuration not stated)	9	1.0	-4.1	-2	-1.1%	6
O=C(COC(=O)c1ccc(Br)cc1)NCCC1=CCCCC1	2	1.0	-1.5	-4	1.6%	4
COc1ccc(C(=O)NNC(=O)c2ccncc2)cc1[N+](=O)[O-]	1	-0.2	-4.2	-4	1.5%	0
O=S(=O)(N1CCOCC1)n1c(Cc2ccccc2)nc2ccccc21	2	-0.7	-2.7	2	4.2%[38.3 µM]	8
CN(CC(=O)Nc1sccc1C#N)Cc1ccccc1	-3	-0.8	-2.5	-6	-1.3%	3
CC(NC(N)=O)C(=O)OCc1ccc(Cl)cc1Cl (configuration not stated)	5	3.4	0.5	-3	-1.0%	6
CCOc1ccc(C(=O)Nc2ccccc2OC(F)F)cc1	7	1.1	-0.9	-24	-0.3%	3
CN(C)CCCNC(=O)c1ccc(-c2ccccc2)cc1	-3	0.7	-1.4	3	-0.1%	-1
CCCC(CCC)C(=O)Nc1cc(-c2cn3cccnc3n2)ccc1OC	·	-0.3	·	2	1.0%	·
CC(=O)c1cccc(NC(=O)CCCSc2ccccc2)c1	-9	4.0	-1.9	-1	-0.7%	-6
COCc1cc(C)nc(OCC(=O)N/N=C/c2ccccc2)c1C#N	-5	1.4	2.2	-3	1.2%	-4
N=c1n(CCN2CCCCC2)c2ccccc2n1CC(=O)c1ccc(Cl)c(Cl)c1	26	-0.2	0.4	-2	-2.0%	25
COc1ccc2c(=O)c(N3C(=O)c4ccccc4C3=O)c(C)oc2c1	2	0.2	0.9	18	-1.9%[38.3 µM]	2
CC(C)Oc1ccc(C(=O)O)c(C(=O)O)c1	1	-0.2	-1.3	-1	5.3%[38.3 µM]	3
Cc1nc2ccc(NC(=O)N3CCOCC3)cc2s1	1	-0.4	-0.8	12	-1.0%	1
CCN(CC)S(=O)(=O)c1cccc(C(=O)NCC(=O)OCC(=O)NCc2ccccc2)c1	3	-1.2	-1.1	-9	-0.2%	0
O=C1c2ccccc2C(Nc2ccc3c(c2)OCCO3)N1Cc1ccc2c(c1)OCO2 (configuration not stated)	?	0.6	-3.7	-1	0.7%	?
COc1ccc2nc(SCC(=O)NCc3ccc4c(c3)OCO4)[nH]c2c1	2	2.7	-1.3	7	-1.2%	-8
CC1=C(C(=O)NCc2ccccn2)C2(CCC(C)CC2)OC1=O (configuration not stated)	-5	0.0	-0.4	-14	4.2%	-17
Cc1cccc(NC(=O)C2CCN(C(=O)N3CCOc4ccccc43)CC2)c1C	0	0.3	-5.0	-11	0.6%	8
Cc1ccc2c(c1)cc(C(=O)NCc1ccc(F)cc1)n2C	·	-0.8	·	-7	3.1%	·
O=C(OCC(=O)N(c1ccccc1)C1CCCCC1)c1ccc(CO)cc1	3	-1.6	1.3	-8	5.9%	·

An excerpt of these results, field by field:
> Cc1nc2ccc(NC(=O)N3CCOCC3)cc2s1
  Six1-Eya2 inh = 1 | TRPML1 agonist = -0.4 | D2 agonist = -0.8 | TRPML1 blocker = 12 | PINK1 modulator = -1.0% | CtBP-E1A blk = 1
> CCN(CC)S(=O)(=O)c1cccc(C(=O)NCC(=O)OCC(=O)NCc2ccccc2)c1
  Six1-Eya2 inh = 3 | TRPML1 agonist = -1.2 | D2 agonist = -1.1 | TRPML1 blocker = -9 | PINK1 modulator = -0.2% | CtBP-E1A blk = 0
> O=C1c2ccccc2C(Nc2ccc3c(c2)OCCO3)N1Cc1ccc2c(c1)OCO2 (configuration not stated)
  Six1-Eya2 inh = ? | TRPML1 agonist = 0.6 | D2 agonist = -3.7 | TRPML1 blocker = -1 | PINK1 modulator = 0.7% | CtBP-E1A blk = ?
> COc1ccc2nc(SCC(=O)NCc3ccc4c(c3)OCO4)[nH]c2c1
  Six1-Eya2 inh = 2 | TRPML1 agonist = 2.7 | D2 agonist = -1.3 | TRPML1 blocker = 7 | PINK1 modulator = -1.2% | CtBP-E1A blk = -8

Continued.
SMILES	Six1-Eya2 inh	TRPML1 agonist	D2 agonist	TRPML1 blocker	PINK1 modulator	CtBP-E1A blk
CCc1ccccc1NC(=O)CCN1C(=O)C2CC=CCC2C1=O (configuration not stated)	-3	-0.3	-0.9	-14	-0.9%	8
COC(=O)C1=CO[C@@H](O[C@@H]2O[C@H](CO)[C@@H](O)[C@H](O)[C@H]2O)C2C1C=C[C@@]2(O)CO (some centres not stated)	-15	0.5	-2.9	14	0.8%	-9
CCN(CC#CCC(O)(c1ccccc1)C1CCCC1)C(C)C (configuration not stated)	-1	0.3	-5.1	20	-2.5%	-3
O=C(CN1C(=O)c2ccccc2S1(=O)=O)N1CCc2ccccc21	4	0.8	-1.1	2	-0.4%	-6
Cc1nc2ccc3nc(NC(=O)c4ccc5c(c4)OCCO5)sc3c2s1	31&119	0.3&0.5	-1.8	0	-2.8%[38.3 µM]	16
Cc1ccccc1NC(=O)CSc1n[nH]c(-c2ccccn2)n1	-92*	2.0	0.8	-3	-1.5%	-94*
COc1ccc(CNC(=O)CSc2nc3ccc(OC)cc3[nH]2)cc1	-5	-0.4	-7.1	10	2.1%	0
C#CC(C)(CC)NC(=O)Cn1nnc(-c2ccc(OCc3ccccc3Cl)cc2)n1 (configuration not stated)	·	0.4	·	-24	-1.1%	·
Cc1cc(-c2nc(C)c(C(=O)NNS(=O)(=O)c3ccccc3)s2)no1	1	4.6	-0.1	7	-0.8%	4
O=C(CN1C(=O)C(=O)c2ccccc21)c1ccc(Cl)cc1	1	0.3	-6.6	8	3.7%	·
O/N=C1/CCCCC1c1ccccn1 (configuration not stated)	-11	-0.9	-3.8	-3	2.6%	-1
CC1CCN(C(=O)c2ccccc2NC(=O)c2cccs2)CC1	-8	-0.1	-0.3	43	1.0%	5
CN(C)CCCN(C(=O)c1ccc(Br)s1)c1nc2cc3c(cc2s1)OCCO3	8	0.7	-7.5	-13	-2.5%	-4
COc1cc(-c2cc(NC=O)c3ncc(-c4ccc(C(C)=O)cc4)n3c2)cc(OC)c1OC	-14	-1.0	9.6	·	4.9%	-6
Cc1cccc(NC(=O)/C(C#N)=C/c2cn(CC(=O)NCc3ccco3)c3ccccc23)c1C	3	2.7	1.1	-17	2.4%	-5
CCCCC(=O)NCCc1cc2c(C)ccc(C)c2[nH]c1=O	0	-0.4	-3.3	-11	0.2%	1
O=C(Nc1ccc(Cl)cc1)Nc1ccccc1C(=O)NCc1ccco1	-3	1.0	-1.1	7	-0.3%[38.3 µM]	6
CC(=O)c1ccc(N(C(=O)CNC(=O)c2cccs2)C(C(=O)NCC2CCCO2)c2ccccc2)cc1 (configuration not stated)	5	0.3	4.2	-3	-1.9%	4
CCOC(=O)C1=CC[C@H]2c3c(c4ccccc4n3C)C(=O)C1N2Cc1ccccc1	-8	0.6	5.8	-4	3.8%	-3
COc1ccc(OC)c(NC(=O)c2c(NCc3ccc(OC)c(OC)c3)sc3c2CCC(C)C3)c1 (configuration not stated)	·	0.0	·	7	1.3%	·
COc1ccc(Cl)cc1NC(=S)NCc1ccco1	-9	-1.0	-3.8	-11	-21%[38.3 µM]	-5
O=C(Nc1ccc(S(=O)(=O)N2CCCC2)cc1)c1ccc([N+](=O)[O-])o1	-1	-0.4	3.5	0	2.2%	-9
CCOc1ccc(CCNC(=O)CN2C(=O)NC3(CCCCC3C)C2=O)cc1OCC (configuration not stated)	6	2.2	-3.1	-13	-1.6%	-5
O=S(=O)(NCc1ccc2c(c1)OCO2)c1ccc2oc3ccccc3c2c1	-5	0.6	-4.2	21	25%[38.3 µM]	3
O=C(Nc1nc(OCC(F)(F)F)cnc1/C=C\c1ccccc1)c1ccccc1	-5	1.9	-4.3	87	4.7%	-4
CCOC(=O)C1=C(C)N(C[C@@H]2CC[C@@H](Cc3ccc4cc(OC)ccc4c3)O2)C(=O)NC1c1ccc(OC)cc1 (some centres not stated)	-21	1.6	-1.6	55	0.7%	-12
COc1ccc(-c2cncnc2N)cc1OC	1	-0.7	-4.1	-6	-1.4%	4
COC(C[C@H](O)C[C@@H](O)COCc1ccccc1)OC	2	-0.6	1.2	35	2.6%	·
CCCCN(c1ccccc1)S(=O)(=O)c1cc2c3c(c1)C(C)C(=O)N3CCC2 (configuration not stated)	·	0.5	·	-11	0.6%	·
Cc1ncc(CO)c2cc(C(=O)Nc3ccccc3Cl)c(=Nc3cccc(C(N)=O)c3)oc12	-4	2.8	9.4	25	-0.3%	-11
Cc1ccc2c(c1)C(=O)C(=O)N2CC(=O)Nc1ccc(N2CCOCC2)cc1	-6	-0.2	-9.3	31	0.9%	1
O=C(Nc1nnc(-c2ccccc2)s1)c1cc(S(=O)(=O)N2CCOCC2)c(Cl)cc1Cl	-2	0.1	-2.5	-13	-1.9%	9
CC(C)c1ccc(S(=O)(=O)N2CCCCC2)cc1	8	3.7	-0.7	5	2.9%	22
Cc1nc(SCC(=O)N2CCNC2=O)c(C#N)c(C)c1C	-3	0.2	-3.2	1	-1.0%	1
COc1ccccc1N1CCN(C(=O)CSc2nc3ccccc3nc2Cc2ccccc2)CC1	·	0.0	·	-6	3.8%	·
